Assay outcomes from PubChem BioAssay.
CBX7 AlphaScr = CBX7 inhibition, primary AlphaScreen. hit rate 1.1% among 66,000. O95931. AID 1224903. normalised signal (fraction of DMSO) (test concentration not listed). AlphaScreen His6-CBX7 / biotin-H3K27me3 peptide binding; hits give low values; in the data active means normalised signal below about 0.5;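 further: 100 nL library stock added to about 20 µL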
CBX7 AlphaScr z-score = further read-out of CBX7 AlphaScr, marked with its call; z-score; measured here: z-score of CBX7 signal; some inactives read as strong as hits; reference of the scale not given here;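 same signal on another scale; lower means less binding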
* = called active by the depositor. An excerpt. The share of hits here may be higher or lower than overall.

SMILES | CBX7 AlphaScr | CBX7 AlphaScr z-score
CCc1ccc(S(=O)(=O)Nc2cccc(-c3cn4c(C)cccc4n3)c2)cc1 | 1.2 | 4.8
COc1ccc(-c2nc3cc(C)ccn3c2NC(=O)c2cc(Br)ccc2Cl)cc1 | 0.94 | -0.11
OC(C#CCN1CCCC1)(c1ccccc1)c1ccccc1 | 1.1 | 1.4
CN1CCOC(c2ccccc2)c2ccccc2C1 (configuration not stated) | 1 | 0.59
O=C(NCCCn1ccnc1)c1cc(-c2ccco2)on1 | 0.42* | -15*

As a short view, 2 of the compounds above.
SMILES | CBX7 AlphaScr | CBX7 AlphaScr z-score
CCc1ccc(S(=O)(=O)Nc2cccc(-c3cn4c(C)cccc4n3)c2)cc1 | 1.2 | 4.8
COc1ccc(-c2nc3cc(C)ccn3c2NC(=O)c2cc(Br)ccc2Cl)cc1 | 0.94 | -0.11

Ordered by number of heavy atoms (low to high): part of the list above
SMILES | CBX7 AlphaScr | CBX7 AlphaScr z-score
CN1CCOC(c2ccccc2)c2ccccc2C1 (configuration not stated) | 1 | 0.59
O=C(NCCCn1ccnc1)c1cc(-c2ccco2)on1 | 0.42* | -15*
COc1ccc(-c2nc3cc(C)ccn3c2NC(=O)c2cc(Br)ccc2Cl)cc1 | 0.94 | -0.11
